SARS PLP yeast: SARS-CoV PLP inhibition in yeast. AID 485353. 330,000 tested, 0.19% active. Potency, µM (series often up to 32.9 µM), for the others: at the highest dose activity, positive = growth rescue. S. cerevisiae expressing SARS-CoV PLpro, growth rescue; control for the full effect not named in the record; active means well fitted rising curve with a large enough effect; inconclusive means small, poorly fitted or top-dose-only effect; inactive means no such curve, though single readings can be large or run the other way; note: 0% is about no effect; nearly all actives have a fitted effect of over 55% in size; growth read by luminescence after 48 h
RE007 growth inh: less growth of the S. pombe RE007 Vpr strain; AID 651644; Potency, µM (doses to about 92.2 µM), inactives show at the top dose activity change, negative = less growth; S. pombe RE007 Vpr strain, BacTiter-Glo ATP luminescence, 24 h; control for the full effect not named in the record; 360,000 tested, 0.21% active; active = well fitted falling curve with a large enough effect; inconclusive = small, poorly fitted or top-dose-only effect; inactive = no such curve, though single readings can be large or run the other way;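 note: % is set by controls: 0 for no effect and ±100 for the full control effect; nearly all actives have a fitted effect of over 50% in size; the assay follows cell death caused by Vpr and the record does not say whether a fall means rescue or toxicity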
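Fission yeast RE007 carrying one integrated HIV-1 vpr copy, seeded at OD 0.01 in PMG+AL medium with 23 nL pinned compound. Grown 24 h at 30 degrees; viability read by BacTiter-Glo luminescence after 5 min.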
Cruzain Triton: inhibitors of Trypanosoma cruzi cruzain with detergent. P25779. purified cruzain, Z-FR-AMC fluorescence, 0.01% Triton. Potency, µM, for inactives: max response, negative = inhibition, actives largely listed as inhibitors. 200,000 tested, 0.43% active;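 note: plate controls were neutral wells for no effect and buffer without enzyme for full effect; nearly all actives have a fitted effect of over 40% in size; top concentration of the series not given in the record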
Target sequence (P25779 123-467 limits assumed): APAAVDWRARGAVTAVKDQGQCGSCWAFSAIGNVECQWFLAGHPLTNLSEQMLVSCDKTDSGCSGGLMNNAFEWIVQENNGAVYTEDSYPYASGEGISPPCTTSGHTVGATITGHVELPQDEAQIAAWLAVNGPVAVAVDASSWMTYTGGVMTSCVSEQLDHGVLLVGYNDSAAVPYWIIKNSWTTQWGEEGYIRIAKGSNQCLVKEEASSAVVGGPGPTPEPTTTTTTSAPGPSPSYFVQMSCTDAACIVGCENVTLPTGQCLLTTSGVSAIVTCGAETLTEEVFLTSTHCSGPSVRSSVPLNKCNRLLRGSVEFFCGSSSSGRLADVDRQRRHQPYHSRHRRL
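Steps: dispense cruzain (1.5 nM final) in acetate buffer pH 5.5 with DTT and 0.01% Triton X-100; pin-transfer compounds; incubate 15 min RT; add Z-FR-AMC (2 uM final); read fluorescence every 30 s, using the 60 s intensity change.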
NS1 function inh: blocks influenza NS1 protein function | S. cerevisiae slowed by influenza A NS1, growth recovery by OD600 | Potency, µM (highest dose often 46.1 µM), for inactives: top-dose activity, positive = more growth | 270,000 tested, 0.4% active | AID 2326; active means well fitted rising curve with a large enough effect; inconclusive means small, poorly fitted or top-dose-only effect; inactive means no such curve, though single readings can be large or run the other way; note: nearly all actives have a fitted effect of over 50% in size
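Read-out: OD600 growth recovery of NS1-expressing budding yeast. Cells grown overnight at 30C in -URA glucose medium, washed, resuspended and diluted 1:100 in 2% galactose assay medium, pH 6.0. Same strain lacking NS1 served as positive control.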
Marburg entry inh: inhibitors of Marburg virus binding or cell entry; Potency, µM (titrated, usually from 37.8 µM), for inactives: at the highest dose activity change, negative = inhibition, hits mostly inhibitors; Marburg virus pseudotyped entry inhibition, cell reporter; control for the full effect not named in the record; about a third of the inactives were read at about 46 µM; 300,000 tested, 1.8% active; AID 540276; active = well fitted inhibition curve with a large enough effect; inconclusive = small, poorly fitted or top-dose-only effect, or effect the other way; inactive = flat fitted curve, though single readings scatter; tested in HEK293 cells; about a fifth of its hits are not listed in these tables; note: % is set by controls: 0 for no effect and ±100 for the full control effect; luciferase read-out
2A StopGo: FMDV 2A StopGo reporter, luciferase signal; human cells with a luciferase reporter of 2A StopGo recoding; control for the full effect not named in the record; 410,000 tested, 1.2% active; AID 1159524; Potency, µM (highest dose often 57.9 µM), for inactives: at the highest dose signal change, negative = less light; active = well fitted falling curve with a large enough effect; inconclusive = small, poorly fitted or top-dose-only effect; inactive = no such curve, though single readings can be large or run the other way; tested in HEK293T cells; note: % is set by controls: 0 for no effect and ±100 for the full control effect; nearly all actives have a fitted effect of over 45% in size; luciferase light after 4 h
Cruzain inh noDet: blocks cruzain activity in detergent-free assay | P25779 | purified cruzain, Z-FR-AMC fluorescence, no detergent | Potency, µM, for inactives: max response, negative = inhibition, hits mostly inhibitors | 200,000 tested, 2.3% active | AID 1476;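 note: plate controls were enzyme without inhibitor for no effect and buffer without enzyme for full effect; nearly all actives have a fitted effect of over 40% in size; top concentration of the series not given in the record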
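Detergent-free condition (0.00005% Triton X-100) in acetate buffer pH 5.5 with DTT. 1.5 nM enzyme and compound were pre-mixed 15 min, then 2 uM Z-FR-AMC substrate added; reaction progress from fluorescence change between first and third reads (60 s).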
Lassa entry inh: Lassa virus entry inhibition; Lassa virus pseudotype entry inhibition, cell reporter; control for the full effect not named in the record; Potency, µM (top dose mostly 37.9 µM), for the others: top-dose activity change, negative = inhibition, usual class: inhibitors; 300,000 tested, 1.2% active; active means well fitted inhibition curve with a large enough effect; inconclusive means small, poorly fitted or top-dose-only effect, or effect the other way; inactive means flat fitted curve, though single readings scatter; tested in HEK293 cells; note: % is set by controls: 0 for no effect and ±100 for the full control effect; nearly all actives have a fitted effect of over 50% in size; luciferase read-out
Active calls of the source: *; ? = inconclusive; · = not tested or not shown; & = joins results of further samples; [ ] = dose if it differs, or a comment. Unless noted, calls come from the whole dose curve; as a rule, active = well fitted curve in the direction sought with a large enough effect; inconclusive = small, poorly fitted or top-dose-only effect, or another doubt; inactive = no such curve, though single readings can be large; an effect the other way counts as inactive or inconclusive. Potency is the fitted concentration of half-maximal effect.

SMILES	SARS PLP yeast	RE007 growth inh	Cruzain Triton	NS1 function inh	Marburg entry inh	2A StopGo	Cruzain inh noDet	Lassa entry inh
Cc1onc(-c2ccccc2)c1C(=O)NC(C)C1CCCO1 (stereo not given)	0%	-6%	-2.5%	?	19%	9%	-2%	3%
Fc1ccc(Nc2c3c(nc4nncn24)CCC3)cc1	·	·	-1.6%	·	-15%[46.1 µM]	-21%	-14%	3%[46.1 µM]
COc1ccc(/C=C2\CCn3c2nc2cc(C(=O)O)ccc2c3=O)cc1O	16%	2%	-14%	?	?	-2%	-8%	6%
Cn1c2c(c(=O)n(C)c1=O)C(c1ccccc1Cl)CC(=O)N2 (stereo not given)	8%	-7%	1.4%	0%	·	-18%	?	·
CC(C)OCCCn1c(=N)c(S(=O)(=O)c2ccccc2)cc2c(=O)n3ccccc3nc21	-2%	-10%	·	5%	·	15%	·	·
Cc1cccc(C(=O)Nc2ccc(-c3nc4ccccc4s3)c(C)c2)c1	·	·	-4.2%	·	·	19%	9%	12%[46.1 µM]
CCN(CC)C(=O)CSc1nc(O)c(Cc2ccccc2)c(=O)n1-c1ccccc1	1%	-6%	-1.2%	?	?	-1%	-8%	30%
COc1ccc(C2/C=C\CN(S(=O)(=O)c3cccs3)CC(=O)N2Cc2ccc(F)cc2)cc1 (stereo not given)	-4%	-2%	·	1%	·	-1%	·	·
Cc1ccc(NC(=O)[C@@H](C)NC(=O)[C@@H]2Cc3ccccc3CN2)cc1	1%	-3%	·	8%	·	13%	·	·
c1ccc(-c2nc3cc4ccccc4cc3[nH]2)nc1	-28%	?	-15%	-2%	?	-76%	0%	2.2µM*
Nc1c(S(=O)(=O)O)cc(NC(=O)c2ccccc2)c2c1C(=O)c1ccccc1C2=O	-2%	-21%	·	-18%	·	0%	·	·
C=CCc1cc(OC)ccc1OCC(O)CN1CCN(c2ccc(OC)cc2)CC1 (stereo not given)	-6%&-3%	1%&1%	-0.1%	-16%&-5%	-27%	?	-6%	?
CCc1cc(=O)[nH]c(SCC(=O)Nc2cc(C)on2)n1	2%	-15%	·	·	-9%[46.1 µM]	22%	·	2%
COc1ccc(C(CNC(=O)COc2ccccc2-c2ccccc2)N2CCOCC2)cc1 (stereo not given)	4%	10%	·	-9%	·	-31%	·	·
Cc1nnc(N(C)C(=O)c2ccccn2)s1	2%	5%	6.0%	-2%	9%	-7%	0%	16%
Cn1c(=O)cc(SCC(=O)Nc2ccccn2)c2ccccc21	-3%	5%	-0.8%	-4%	0%	10%	?	0%
Cc1ccc(-n2ccnc(NCc3ccccc3)c2=O)cc1C	·	·	-3.6%	·	·	-17%	-6%	0%[46.1 µM]
Cc1ccc(N(C(=O)CCC(=O)Nc2nccs2)C(C(=O)NC(C)(C)C)c2ccc(O)cc2)cc1 (stereo not given)	0%	-2%	·	3%	8.9µM*	-17%	·	-15%[46.1 µM]
CCCCNC(c1ccccc1)c1ccncc1 (stereo not given)	0%	-11%	-1.5%	-8%	2%	·	15%	1%
CN(C)C(=O)CN(c1ccc2c(c1)OCO2)S(C)(=O)=O	14%	3%	4.9%	6%	23%	-5%	6%	?
COc1ccc(CCNC(=O)c2ccc(Nc3nc4ccccc4n4nnnc34)cc2)cc1OC	·	·	-4.0%	·	?	?	-5%	-11%[46.1 µM]
Oc1ccc(NCc2ccccc2OCc2ccc(Cl)cc2)cc1	·	·	-20%	·	?	-10%	-20%	-15%[46.1 µM]
C=CCNc1nc(-c2cccs2)c(CC(=O)O)s1	0%	-7%	·	-38%	15%[46.1 µM]	6%	·	0%
COCCOC(=O)C1=C(C)N(c2ccccc2)C(=S)NC1c1ccccc1C(F)(F)F (stereo not given)	21%	7%	·	·	?	-3%	·	2%
C=CCC(CC=C)(NC(=O)c1ccccc1)c1ccccc1	0%	3%	6.1%	18%	-15%&-15%	-13%	-1%	11%
CNc1nccc(-c2ccc(Cl)cc2)c1C#N	0%	9%	·	·	27%[46.1 µM]	1%	·	4%[46.1 µM]
S=C(NC1CCCC1)N1CCN(c2ccc(Cl)cc2)CC1	-4%	-21%	·	-43%	?	-18%	·	-3%[46.1 µM]
CCOC(=O)C1=C(C)N(c2ccccc2)C(=O)/C1=C\c1ccco1	-1%	-3%	-9.1%	-8%	-10%	-21%	-4%	16%
COc1ccccc1OCC(=O)Nc1ccc(S(=O)(=O)N2CCOCC2)cc1	-1%	-1%	·	2%	0%	-5%	·	-8%
CCOC(=O)Cc1nnc(NC(=O)CSc2ccc(Cl)cc2)s1	-2%	23%	1.6%	5%	1%	-19%	?	-14%
CCc1nnc(NC(=O)c2ccc(S(=O)(=O)N(CC)Cc3ccccc3)cc2)o1	?	?	-3.1%	-262%	?	-22%	?	?
C(=C\c1ccco1)/C1=NN(c2ccccc2)C(c2ccco2)C1 (stereo not given)	-22%	-3%	-11%	-5%	?	-14%	-9%	0%
Cc1c(C(=O)NC(=S)NCc2cccnc2)oc2ccccc12	0%	0%	·	-2%	30%[46.1 µM]	37%[activator]	·	5%
Cc1ccc(S(=O)(=O)c2c(C)cc(C)nc2Oc2cccc(C(F)(F)F)c2)cc1	-6%	6%	0.2%	-14%	?	-6%	6%	?
CC(NS(=O)(=O)c1c(N)n(C)c(=O)n(C)c1=O)c1ccccc1 (stereo not given)	-6%	-15%	·	-8%	3%	-4%	·	2%
Cc1cc(C)cc(OCC(=O)Nc2cccc(-c3nc4ncccc4o3)c2)c1	-4%	7%	-4.9%	3%	·	?	7%	·
C=CCn1c(Oc2ccccc2)nc2c1c(=O)n(C)c(=O)n2C	1%	4%	·	-4%	13%[46.1 µM]	-10%	·	2%[46.1 µM]
COCCN(CCOC)C(=O)COC(=O)c1ccc(Cl)c(S(=O)(=O)N(C)c2ccccc2)c1	-1%	-3%	·	·	?	-25%	·	-1%
COc1ccc(NC(=O)c2cc(S(=O)(=O)N3CCCCC3)ccc2C)cc1S(=O)(=O)N1CCOCC1	·	-1%	·	·	?	-3%	·	2%
O=[N+]([O-])c1ccc(/C=C/c2ccc3cccc(O)c3n2)cc1	-1%	-6%	·	3%	·	58%[activator]	·	·
COc1ccc(C(=O)n2nc(-c3ccco3)nc2NCc2cccs2)cc1OC	·	·	-8.3%	·	16%[46.1 µM]	0%	18%	28%[46.1 µM]
CC(C)(C)c1[nH]nc2c1C(C1C=CCCC1)C(C#N)=C(N)O2 (stereo not given)	12%	-8%	-9.4%	3%	-1%	?	2%	0%
Cc1ccccc1OCC(=O)NN1Cc2ccccc2C1=N	11%	-3%	6.3%	6%	6%	8%	8%	20%
Cc1cc(=O)[nH]c(SCC(=O)NCCc2ccccc2)n1	7%	-13%	2.6%	-12%	-5%	-10%	-3%	0%
Cc1csc(NC(=O)c2ccc(C)o2)n1	-17%	-18%	-4.0%	8%	?	22%	4%	?
C(=C/c1ccnc2nc(SC/C=C/c3ccccc3)nn12)/c1ccccc1	-4%	0%	6.8%	12%	-15%	5%	-13%	?
COc1ccc(C(=O)N[C@H](C(=O)NCc2ccccc2)C(C)C)cc1	-4%	-23%	·	9%	?	-12%	·	1%[46.1 µM]
Cc1[nH]c(C)c2c(=O)n(Cc3ccccc3Cl)ncc12	·	14%	·	·	0%[46.1 µM]	-5%	·	-19%
CC(=O)N1CCN(c2ccc(NC(=O)C(C)Oc3ccc(Cl)cc3Cl)cc2)CC1 (stereo not given)	-20%	1%	-3.6%	0%	?	0%	?	-15%
COc1ccc(C(=O)O/N=C(\C)c2cnccn2)cc1	-1%	-17%	·	-3%	-3%[46.1 µM]	52%[activator]	·	-5%
CC1CCN(c2[nH]c(=S)c(C#N)c3c2CCCC3)CC1	11%	-19%	2.6%	-12%	?	-18%	-21%	-1%
CC1Cc2nc(SCC(N)=O)n(C)c(=O)c2S1 (stereo not given)	-8%	7%	-4.3%	9%	-36%	-3%	5%	9%
O=C(Cc1ccccc1)NCc1ccc2c(c1)OCO2	17%	-8%	-0.8%	3%	19%	38%[activator]	10%	12%
Cc1cc(C(=O)N/N=C/c2cccnc2)c(C)o1	-2%	2%	1.3%	4%	13%	-1%	-5%	5%
Cc1cccc(CN2CCN(c3nc4nonc4nc3NC3CC3)CC2)c1	1%	-1%	·	2%	2%[46.1 µM]	-17%	·	-12%
NC(=O)CC(NC(=O)Cc1ccc(Br)cc1)c1ccc(NCCN2CCCCC2)c([N+](=O)[O-])c1 (stereo not given)	-6%	2%	·	-9%	·	-2%	·	·
CCOC(=O)Cc1csc(NC(=O)c2cccs2)n1	1%	-20%	-3.1%	-50%	11%	4%	-6%	3%
O=C(COC(=O)c1cccnc1Cl)Nc1ncc(Cl)cc1Cl	8%	2%	·	·	6%	-6%	·	?

A run of entries from the list above:
SMILES	SARS PLP yeast	RE007 growth inh	Cruzain Triton	NS1 function inh	Marburg entry inh	2A StopGo	Cruzain inh noDet	Lassa entry inh
CC(=O)N1CCN(c2ccc(NC(=O)C(C)Oc3ccc(Cl)cc3Cl)cc2)CC1 (stereo not given)	-20%	1%	-3.6%	0%	?	0%	?	-15%
COc1ccc(C(=O)O/N=C(\C)c2cnccn2)cc1	-1%	-17%	·	-3%	-3%[46.1 µM]	52%[activator]	·	-5%
CC1CCN(c2[nH]c(=S)c(C#N)c3c2CCCC3)CC1	11%	-19%	2.6%	-12%	?	-18%	-21%	-1%
CC1Cc2nc(SCC(N)=O)n(C)c(=O)c2S1 (stereo not given)	-8%	7%	-4.3%	9%	-36%	-3%	5%	9%
O=C(Cc1ccccc1)NCc1ccc2c(c1)OCO2	17%	-8%	-0.8%	3%	19%	38%[activator]	10%	12%
Cc1cc(C(=O)N/N=C/c2cccnc2)c(C)o1	-2%	2%	1.3%	4%	13%	-1%	-5%	5%

Source: PubChem (National Center for Advancing Translational Sciences (NCATS))
